# hIAP activ – human IAP activation | 0.16% of 330,000 active | AID 2524 | activation factor at 10 µM | purified human IAP, CDP-Star luminescence, 30 min; hits give high values; 1 = vehicle-only enzyme, 0 = enzyme-free background | P09923;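 active means activation factor of the enzyme at least 2-fold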; further: the source names both 10 and 20 µM as test concentration; values of inactives mirror those of a sister screen read the other way
# Target sequence (P09923 whole entry, looked up): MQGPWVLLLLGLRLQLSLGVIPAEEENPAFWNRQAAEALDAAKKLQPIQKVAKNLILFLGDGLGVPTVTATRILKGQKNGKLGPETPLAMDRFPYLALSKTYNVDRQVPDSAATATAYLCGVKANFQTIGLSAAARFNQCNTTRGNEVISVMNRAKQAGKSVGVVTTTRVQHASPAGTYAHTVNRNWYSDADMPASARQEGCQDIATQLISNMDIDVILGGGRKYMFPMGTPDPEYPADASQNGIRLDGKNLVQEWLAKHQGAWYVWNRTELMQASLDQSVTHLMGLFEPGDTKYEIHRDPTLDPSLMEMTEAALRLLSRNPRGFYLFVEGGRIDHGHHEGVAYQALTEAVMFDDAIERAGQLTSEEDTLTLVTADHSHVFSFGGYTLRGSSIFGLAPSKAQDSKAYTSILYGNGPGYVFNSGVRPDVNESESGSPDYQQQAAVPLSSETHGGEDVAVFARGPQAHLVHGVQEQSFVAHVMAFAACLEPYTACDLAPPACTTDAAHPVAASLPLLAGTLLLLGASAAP
# mIAP block – mouse IAP inhibition; AID 2806; inhibition, % at 10 µM; purified mouse IAP, CDP-Star luminescence, 30 min; 0.2% of 330,000 active;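 active means inhibition of at least 40% at 10 µM in the primary screen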;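 further: plate controls were DMSO with enzyme for no effect and no enzyme wells for full effect; values of inactives mirror those of a sister screen read the other way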
# hIAP block – human IAP inhibition | AID 2544 | purified IAP, CDP-Star luminescence, 30 min | inhibition, % at 10 µM | 0.12% of 330,000 active | P09923;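 active means inhibition reaching a set limit with compound at 10 µM in the primary screen, cut at about 35% in these data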;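 further: plate controls were DMSO wells with enzyme for no effect and no-enzyme buffer wells for full effect; values of inactives mirror those of a sister screen read the other way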
# ATG4B inh – ATG4B (human) cysteine protease inhibition | 0.51% of 340,000 active | AID 504462 | ATG4B cleavage of LC3-PLA2, NBD-HPC fluorescence, 1 h | inhibition, % at 8.33 µM; in the data active means inhibition above about 40%
# A3A deaminase – blocks human APOBEC3A ssDNA deamination. P31941. recombinant A3A, FAM/TAMRA ssDNA deamination fluorescence. inhibition, % at 20 µM. 0.41% of 330,000 active. AID 493011;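 active means at least 40% inhibition at 20 µM here, with at most 30% in a related deaminase screen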;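 further: plate controls were A3A with DMSO for no effect and wells lacking A3A enzyme for full effect; some results filed as inactive read as strong as hits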
# Target sequence (P31941 whole entry, looked up): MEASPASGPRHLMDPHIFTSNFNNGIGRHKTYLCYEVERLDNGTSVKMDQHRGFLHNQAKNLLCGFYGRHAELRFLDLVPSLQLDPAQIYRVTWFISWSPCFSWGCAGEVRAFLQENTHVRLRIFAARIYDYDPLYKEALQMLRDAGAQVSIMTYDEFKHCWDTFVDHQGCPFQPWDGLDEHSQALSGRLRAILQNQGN
# mIAP act – mouse IAP activation; 0.24% of 330,000 active; AID 2805; muIAP, CDP-Star luminescence, 30 min; hits give high values; 1 = vehicle-only enzyme signal, 0 = enzyme-free wells; activation factor at 10 µM;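 active means activation factor of at least 2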; further: the source names both 10 and 20 µM as test concentration; values of inactives mirror those of a sister screen read the other way
#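 Assay system: mouse IAP enzyme; reagent: chemiluminescent substrate CDP-Star; dosing: test compounds delivered from DMSO solution; schedule: 30 min at room temperature; measured by: luminescence from enzymatic CDP-Star hydrolysis; controls: DMSO-only wells and no-enzyme negative control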
# beta cell repl – inducers of beta-cell replication in MIN6 cells; MIN6 cells proliferation, ATPlite luminescence, 48 h; cells starved in 0.2% serum; 100% = growth in 10% serum; proliferation, % at 10 µM; 0.29% of 330,000 active; AID 2380;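 active means compounds whose signal lies at least 3.5 SD above the mean of all wells on their plate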;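 further: 0% = DMSO-treated cells in low-serum medium and 100% = 10% serum control; some compounds called inactive have numbers as strong as hits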
# A3G deaminase – blocks human APOBEC3G single-stranded DNA deamination. inhibition, % at 20 µM. recombinant A3G, ssDNA deamination FAM/TAMRA fluorescence. 0.28% of 330,000 active. AID 493012. Q9HC16;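 active means inhibition of at least 40% at 20 µM, with no more than 30% in the related APOBEC3A deaminase screen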;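 further: plate controls were DMSO wells with A3G for no effect and wells lacking A3G enzyme for full effect; some compounds called inactive have numbers as strong as hits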
# Target sequence (Q9HC16 whole entry, looked up): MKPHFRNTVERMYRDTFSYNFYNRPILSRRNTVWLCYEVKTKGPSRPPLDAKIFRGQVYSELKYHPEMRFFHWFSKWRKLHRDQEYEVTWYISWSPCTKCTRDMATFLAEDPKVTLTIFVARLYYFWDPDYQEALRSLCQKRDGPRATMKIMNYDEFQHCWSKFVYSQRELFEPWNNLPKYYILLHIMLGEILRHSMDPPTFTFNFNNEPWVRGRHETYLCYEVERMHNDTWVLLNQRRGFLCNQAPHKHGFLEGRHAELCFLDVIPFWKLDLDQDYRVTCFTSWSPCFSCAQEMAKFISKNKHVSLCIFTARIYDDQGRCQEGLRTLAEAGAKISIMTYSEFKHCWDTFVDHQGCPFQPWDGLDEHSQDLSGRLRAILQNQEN
# * marks the source's active call; other numbers are inactive results; nt = no result given; & = joins results of further samples. Only part of the results is shown. The share of hits here may be higher or lower than overall.
# Sample of the layout:
SMILES,hIAP activ,mIAP block,hIAP block,ATG4B inh,A3A deaminase,mIAP act,beta cell repl,A3G deaminase
CC(C)CC(=O)NCc1ccc2[nH]c3c(c2c1)CCCC3,1.2,-9,-19,-3,-2,1.1,-1,-5
C[C@]12CCC(=O)C=C1CC[C@@H]1[C@@H]2[C@@H](O)C[C@@]2(C)[C@H]1CC[C@]2(O)C(=O)CO,0.82&1.1,-8&-3,18&-6,8&5,0&1,1.1&1,-6&-1,-5&-3
CC12CCC(C(=O)N(CC(O)CN3CCCCC3)C1=O)C2(C)C (centres undefined),0.9,-5,10,1,-3,1,1,-4
CCN(CCNC(=O)C1CCCN(c2ncnc3c2nc2n3CCCCC2)C1)Cc1ccccc1 (centres undefined),1.3,6,-27,-6,2,0.94,0,1
COc1ccc(OCC(=O)Nc2cc(OC)cc(OC)c2)cc1,0.84,-8,16,-11,-6,1.1,-4,-10

# All compounds of this part (from the top)
SMILES,hIAP activ,mIAP block,hIAP block,ATG4B inh,A3A deaminase,mIAP act,beta cell repl,A3G deaminase
CC(C)CC(=O)NCc1ccc2[nH]c3c(c2c1)CCCC3,1.2,-9,-19,-3,-2,1.1,-1,-5
C[C@]12CCC(=O)C=C1CC[C@@H]1[C@@H]2[C@@H](O)C[C@@]2(C)[C@H]1CC[C@]2(O)C(=O)CO,0.82&1.1,-8&-3,18&-6,8&5,0&1,1.1&1,-6&-1,-5&-3
CC12CCC(C(=O)N(CC(O)CN3CCCCC3)C1=O)C2(C)C (centres undefined),0.9,-5,10,1,-3,1,1,-4
CCN(CCNC(=O)C1CCCN(c2ncnc3c2nc2n3CCCCC2)C1)Cc1ccccc1 (centres undefined),1.3,6,-27,-6,2,0.94,0,1
COc1ccc(OCC(=O)Nc2cc(OC)cc(OC)c2)cc1,0.84,-8,16,-11,-6,1.1,-4,-10
Cc1cc(/C=N\NC(=O)COc2cccc3cccnc23)c(C)n1-c1ccccc1,1.1,0,-10,9,-1,1,-3,-3
O=C(C=Cc1cccs1)c1ccccc1,nt,nt,nt,0,nt,nt,nt,nt
CCCC(C)NC(=O)c1cccc(Oc2ccccc2)c1 (centres undefined),0.94,-10,6,3,2,1.1,-1,-7
CC[C@H]1CN2CCc3cc(OC)c(OC)cc3[C@@H]2C[C@@H]1C[C@H]1NCCc2cc(OC)c(OC)cc21,0.96,-18,4,-5,-3,1.2,-8,-5
Fc1cccc(CN2CCCCCCC2)c1,0.83,8,17,1,-1,0.93,0,-2
O=C(NCC1CCN(Cc2cccc(Cl)c2)CC1)Nc1ccccc1Cl,1.6,-173,-58,12,-1,2.7*,-4,-5
O=C(N/N=C/c1ccc2c(c1)OCO2)c1ccc(Br)o1,0.93,0,7,5,0,1,0,1
CC1CCCC(C)N1CCCNC(=O)c1nn(C)c2c1CSc1ccccc1-2 (centres undefined),1.3,3,-32,-4,0,0.97,-5,-2
CC(=O)CCc1oc2ccc([N+](=O)[O-])cc2c1-c1ccc(C)o1,0.79,4,21,-2,1,0.96,0,-5
O=C(CCCCCCC(=O)Nc1ccccc1)NO,0.9,-13,10,-7,1,1.1,-9,-7
COc1cc(C(=O)NC2CCN(C)CC2)ccc1Nc1ncc2c(n1)N(C1CCCCC1)CCC(=O)N2C,nt,nt,nt,8,nt,nt,nt,nt
CN(NS(=O)(=O)c1ccc(Cl)cc1)c1ncc(C(F)(F)F)cc1Cl,0.85,6,14,0,0,0.94,0,-4
O=C(O)C1C2C=CC(C2)C1C(=O)NCCC1=CCCCC1 (centres undefined),0.79,7,22,-9,-2,0.93,0,-5
Cc1cccc(CS(=O)(=O)Cc2ccc(C(=O)NC3CCCCCC3)o2)c1,1.1,1,-12,-8,-7,0.99,-1,-4
O=C(CN1C(=O)C2C3C=CC(C3)C2C1=O)Nc1nncs1 (centres undefined),0.9,7,10,0,-1,0.93,-1,-4
CCCCOC(=O)C1=C(C)Nc2nnnn2C1c1ccc(OC)c(OC)c1OC (centres undefined),1.2,6,-21,-8,-1,0.94,-4,-2
COc1ccccc1NS(=O)(=O)c1cc(C(=O)N2CCCCCCC2)ccc1C,1,-6,-2,-2,0,1.1,0,-1
CCOc1ccccc1NC(=S)N(Cc1cc2ccc(C)cc2[nH]c1=O)CC1CCCN1CC (centres undefined),1.1,0,-10,1,-4,1,-6,-14
O=C(N/N=C/c1ccc(OC(=O)c2ccccc2Br)cc1)c1ccccn1,1.5,17,-49,-6,-4,0.83,-3,-10
Oc1ccc2ccccc2c1CNc1cnc2ccccc2c1,0.9,0,10,-13,-6,0.99,-2,-2

# (further entries)
SMILES,hIAP activ,mIAP block,hIAP block,ATG4B inh,A3A deaminase,mIAP act,beta cell repl,A3G deaminase
C/C(CC1CC2=C(CC1(C)C)C(C)(C)CCC2)=N\NC(N)=S (centres undefined),1.1,-9,-5,4,-7,1.1,-4,13
N#Cc1cnn(-c2ccccc2)c1NC(=O)c1ccccc1F,0.86,-7,14,-4,-6,1.1,-1,-7
C/C(=N\NC(=O)c1nnn(-c2nonc2N)c1CSc1ccc(Cl)cc1)c1cccnc1,1.4,8,-41,-8,-5,0.92,-4,-8
CN(C(=O)COC(=O)c1cccnc1Nc1cccc(C(F)(F)F)c1)C1CCS(=O)(=O)C1 (centres undefined),1.1,2,-10,-13,3,0.98,1,-1
Clc1ccc(-c2nnc(COc3ncnc4ccccc34)o2)cc1,1.1,3,-6,-5,1,0.97,-5,-11
CN1CCN(NC(=O)/C=C/c2cccc([N+](=O)[O-])c2)CC1,1,-2,-4,2,4,1,3,5
CCc1ccc(OCCCOc2ccc(C=O)cc2)cc1,0.9,4,10,5,6,0.96,-3,1
Cc1cccc(NS(=O)(=O)c2ccc(C(=O)N3CCCCCC3)cc2)c1C,1,-5,0,-4,3,1.1,-3,-8
CCC(C)NC(=O)C1CCN(S(=O)(=O)c2cccnc2)CC1 (centres undefined),1.3,-6,-31,9,-4,1.1,-4,-4
CCN(CC)CCCN1C(=O)C(O)=C(C(=O)c2cc3cccc(OC)c3o2)C1c1ccncc1 (centres undefined),0.93,3,8,1,1,0.97,0,-3
O=[N+]([O-])c1ccc(-c2nc(-c3cccs3)c(-c3cccs3)[nH]2)cc1,1.7,14,-73,-5,-1,0.86,-6,-5
CC(=O)Nc1ccc(CN2CCCC(CO)(Cc3ccccc3C)C2)cc1 (centres undefined),1.1,-2,-5,-3,-5,1,-5,-6
Cc1ccccc1NC(=O)c1ccc2c(c1)C(=O)N(CC(C)C)C2=O,1.2,0,-21,-3,-5,1,-1,-1
Cn1c(=O)c2c(ncn2CCOc2ccc(Br)cc2)n(C)c1=O,0.91,0,9,-6,-3,1,4,-9
C=CCn1c(=S)[nH]c2scc(-c3ccco3)c2c1=O,0.99,18,1,21,79,0.82,-3,71
Cc1nc(NCC2CCCO2)[nH]c(=O)c1CCC(C)C (centres undefined),0.98,-5,2,3,-2,1,-4,-5
COc1ccc(OC(=O)CCc2c[nH]c3ccccc23)cc1,1,2,-2,4,-1,0.98,-1,-4
CCOC(=O)CN1C(=O)N[C@@H](c2cccc(C(F)(F)F)c2)C(C(=O)OC)=C1C,0.95,10,5,5,-5,0.91,-3,-7
C[N+]1(C)CCC(OC(=O)C(O)(c2ccccc2)C2CCCC2)C1 (centres undefined),0.97,-3,3,-5,-1,1,2,-7
Cc1ccc(-c2noc(-c3ccoc3C)n2)cc1,0.91,4,9,3,-3,0.96,-1,-6
CCOC(=O)Nc1ccc(Cc2ccncc2)cc1,1.1,-10,-6,2,-6,1.1,-2,10
Nc1nnc(-c2cccc(Cl)c2Cl)c(N)n1,1.1,-11,-11,-6,6,1.1,0,1
COc1ccc(C(=O)Sc2nncc3ccccc23)cc1,1.1,5,-13,-3,-4,0.95,4,-7
Oc1c(Cl)cc(Cl)c(Cl)c1Cc1c(O)c(Cl)cc(Cl)c1Cl,0.94,22,6,87*,-2,0.78,-8,-8
Cc1ccc(CNC(=O)C2CC3Cn4c(nc5cc6ccccc6cc54)C3N2C)o1 (centres undefined),0.97,-4,3,-2,-2,1,-2,-4

# (cont.)
SMILES,hIAP activ,mIAP block,hIAP block,ATG4B inh,A3A deaminase,mIAP act,beta cell repl,A3G deaminase
CCOc1cc(C2C3=C(CC(C)(C)CC3=O)N(C)C3=C2C(=O)CC(C)(C)C3)ccc1O,0.97,-1,3,-3,-2,1,0,-3
CCc1ccc(-n2cccc2/C=C2/C(=N)N3C(=NC2=O)SN=C3S(C)(=O)=O)cc1,0.86,8,14,45*,7,0.92,-4,8
Cc1ccc(CNc2ccc(O)cc2)cc1,1.1,16,-7,-17,2,0.84,-3,-1
CCOC(=O)N1CCN(C(=O)c2ccc3c(=O)n(-c4ccc(F)cc4)c(=S)[nH]c3c2)CC1,0.96,8,4,7,-6,0.92,1,-5
COC(=O)c1ccc(C23CC4(C2)[C@H](CN(Cc2cccnc2)[C@@H]4c2ccccc2)C3c2ccc(Cl)nc2)cc1 (some centres undefined),0.93,-7,7,-4,0,1.1,-8,-6
O=C(O)CSCC(=O)NCc1ccc(Cl)cc1Cl,0.91,4,9,7,-3,0.96,-2,-6
O=[n+]1cc(-c2ccccc2)n([O-])c2c1CCCCC2,0.9,-2,10,-4,6,1,0,1
O=C(O/N=C\c1ccc(N2CCCCC2)c([N+](=O)[O-])c1)c1cccc(Cl)c1,0.77,1,23,-6,5,0.99,-4,2
CCC(C)(C)NC(=O)C(c1ccc(C)o1)N(Cc1cccs1)C(=O)Cn1nnc2ccccc21 (centres undefined),1.1,-21,-7,-2,-2,1.2,4,-5
C/C(=N/OCO/N=C(/C)c1ccc(F)cc1)c1ccc(F)cc1,0.87,7,13,8,0,0.93,0,-5
O=C1CC(N2CCN(c3nc4ccccc4s3)CC2)C(=O)N1c1cccc(F)c1 (centres undefined),0.98,3,2,-8,-1,0.97,1,-1
OC(Cn1cncn1)(Cn1cncn1)c1ccc(F)cc1F,0.85,3,15,-1,-1,0.97,-5,-8
Cc1sc2c(c1C)CN(C(C)(C)C)CN2C(=O)c1ccccc1,0.95,2,5,8,2,0.97,-4,-8
C=CCn1c(C(CC)CC(C)(C)O)n[nH]c1=S (centres undefined),1.3,0,-25,-3,-1,1,-1,-7
CCOc1ccc(N(CC(=O)NCCOc2ccc(C)cc2)S(=O)(=O)c2ccccc2)cc1,0.96,-6,4,4,-1,1.1,-2,-8
CC(C)C(=O)NC(Nc1cc(C(F)(F)F)ccc1Cl)C(Cl)(Cl)Cl (centres undefined),0.94,-6,6,0,3,1.1,2,25
C=CCS(=O)(=O)N1CCC(CCOc2ccccc2)(C(=O)OCC)CC1,1.1,-20,-10,16,-3,1.2,-2,-3
COc1ccc(NC(=O)CCCNC(=O)Cn2cnc3sc(C)c(C)c3c2=O)cc1Cl,1.2,-8,-23,-4,-7,1.1,-4,-1
Cc1cccc(-c2cccc(NC(=O)C3CCCN(Cc4cccnc4)C3)c2)c1 (centres undefined),1.2,-10,-18,12,-3,1.1,-6,-4
CCOC(=O)/C(=C\c1ccc([N+](=O)[O-])o1)NC(=O)c1ccccc1,1.2,7,-22,-9,3,0.93,-2,9
O=C(O)c1cccc(-n2cccc2/C=C2/SC(=O)N(CC(=O)N3CCCC3)C2=O)c1,1,3,-4,16,64,0.97,0,37
CCC1(c2ccc(F)cc2)NC(=O)N(CC(=O)Nc2cc(S(=O)(=O)N(C)C)ccc2Cl)C1=O (centres undefined),1,-10,-3,-13,3,1.1,0,-10

# Ordered by heavy-atom count (descending): part of the list above
SMILES,hIAP activ,mIAP block,hIAP block,ATG4B inh,A3A deaminase,mIAP act,beta cell repl,A3G deaminase
CCOc1ccc(N(CC(=O)NCCOc2ccc(C)cc2)S(=O)(=O)c2ccccc2)cc1,0.96,-6,4,4,-1,1.1,-2,-8
O=C(O)c1cccc(-n2cccc2/C=C2/SC(=O)N(CC(=O)N3CCCC3)C2=O)c1,1,3,-4,16,64,0.97,0,37
O=C(O)CSCC(=O)NCc1ccc(Cl)cc1Cl,0.91,4,9,7,-3,0.96,-2,-6

# Bioassay records from PubChem BioAssay.
